HSV augment: HSV replication enhancement; HSV replication augmentation in cells, fold increase; maximum fold increase; hit rate 0.005% among 220,000; AID 1956;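 active means peak rise of 1.5-fold or more in the series; inconclusive means self-fluorescent or not available for retest; tested in PC3 cells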;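 further: first round at 10 µM; read as green reporter fluorescence; hits show the peak of a series up to 25 µM; 1 = signal of infected wells without compound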
GALR2 ag: GALR2 (human) receptor agonism. GALR2-expressing cells, agonist activation read-out. activation, %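 (tested at 5 µM)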. hit rate 0.48% among 140,000. AID 803;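 active means above mean plus 3 SD of all compounds, about 5% in these data, not always enough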;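 further: 0% = vehicle buffer wells and 100% = reference agonist at full effect; tested in CHO reporter cells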
PKD1 kinase inh: blocks activity of human protein kinase D1 | Q15139 | inhibition, %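 (about 10 µM by stock and volumes)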 | hit rate 0.056% among 200,000 | PKD1 kinase fluorescence polarization assay;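 active means inhibition of 50% or more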;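 further: controls were vehicle for no effect and a reference inhibitor for full effect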
Target sequence (Q15139 whole entry, looked up): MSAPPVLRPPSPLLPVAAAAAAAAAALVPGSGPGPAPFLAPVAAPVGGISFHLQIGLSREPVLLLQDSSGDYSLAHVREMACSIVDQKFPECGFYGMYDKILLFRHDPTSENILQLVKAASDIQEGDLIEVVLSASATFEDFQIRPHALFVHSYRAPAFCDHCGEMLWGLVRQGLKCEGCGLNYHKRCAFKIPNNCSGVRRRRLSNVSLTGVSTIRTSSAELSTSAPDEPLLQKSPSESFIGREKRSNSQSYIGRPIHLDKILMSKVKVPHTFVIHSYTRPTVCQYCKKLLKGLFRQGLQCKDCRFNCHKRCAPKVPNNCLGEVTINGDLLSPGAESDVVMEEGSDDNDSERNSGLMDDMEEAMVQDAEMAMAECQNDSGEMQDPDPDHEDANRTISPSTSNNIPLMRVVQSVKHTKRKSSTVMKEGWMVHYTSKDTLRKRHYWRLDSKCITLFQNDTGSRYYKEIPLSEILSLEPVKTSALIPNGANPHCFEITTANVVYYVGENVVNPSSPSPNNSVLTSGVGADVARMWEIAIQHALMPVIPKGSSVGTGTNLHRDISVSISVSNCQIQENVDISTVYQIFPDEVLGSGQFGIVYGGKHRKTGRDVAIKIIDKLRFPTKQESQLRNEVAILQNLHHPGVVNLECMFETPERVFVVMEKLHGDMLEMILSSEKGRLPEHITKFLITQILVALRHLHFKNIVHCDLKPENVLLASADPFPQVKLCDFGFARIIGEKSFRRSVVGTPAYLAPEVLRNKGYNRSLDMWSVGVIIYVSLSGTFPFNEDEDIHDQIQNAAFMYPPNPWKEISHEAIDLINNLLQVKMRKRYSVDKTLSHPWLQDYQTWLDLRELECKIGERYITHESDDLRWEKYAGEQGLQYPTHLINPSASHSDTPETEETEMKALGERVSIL
Insulin prom inh: TRM-6 insulin promoter activity inhibition. hit rate 0.9% among 130,000. inhibition, % at 2 µM. TRM-6 cells (human fetal islet line), insulin promoter-eGFP reporter, imaging; reporter expression induced with tamoxifen;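 active means inhibition above the mean plus 3 SD, with well images judged a real hit on visual review, cut at about 60% in these data, passing the limit was not always enough; inconclusive means inhibition over the cutoff but images rejected on review; inactive means inhibition not above the cutoff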
RGS16-Gao HTS: RGS16-Galphao interaction regulator (human); O15492+P09471; binding response (% of control), % at 10 µM; AID 1441; hit rate 0.38% among 220,000; bead-based flow cytometry RGS16-Galphao binding, fluorescence; actives lie on both sides;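 active means below 25% or above 175%, edge rows of some plates excepted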;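 further: Galphao activated by GDP with aluminum fluoride before binding; 100% = wells without compound and 0% = beads without RGS; some results beyond the cut were filed as inactive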
Insulin prom inh cell count: second read-out of Insulin prom inh, no call of its own (marks repeat the call); normalized cell count, %; measured here: cell count, toxicity; reference of the scale not given here;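 cells exposed to compound for 48 h; stained nuclei by imaging scaled within each plate; lower means fewer cells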
HSV augment primary fold: recorded beside HSV augment, whose call it bears; fold increase; compound at 10 µM; measured here: primary screen fold increase 10 uM; tested in PC3 cells;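 GFP signal in the first replicate; 1 = infected wells without compound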
* hit, by the source's call; i = inactive; ? = inconclusive; / = not tested or not shown.

SMILES	HSV augment	HSV augment primary fold	GALR2 ag	PKD1 kinase inh	Insulin prom inh	Insulin prom inh cell count	RGS16-Gao HTS
Oc1ccc2ccccc2c1/C=N/c1nccs1	i	0.9	-1.5	8	21	112	100
CC(=O)Nc1ccc(S(=O)(=O)Nc2cccn(Cc3ccc(C)cc3)c2=O)cc1	i	1	/	-2	6	77	95
O=C(CN1CCNCC1)Nc1ccc(Oc2ccccc2)cc1	i	0.89	-1.0	2	-43	36	96
COc1ccccc1N1CCN(C(=O)CSc2ccccc2)CC1	i	0.88	0.1	-7	-39	131	103
COc1ccc(/C(O)=C2/C(=O)C(=O)N(c3ccccn3)C2c2ccc(OC)c(OC)c2)cc1 (stereo not drawn)	i	1	/	/	/	/	87
COc1cc(/C=C(\C#N)C(=O)Nc2ccccc2C(=O)O)cc(Cl)c1OC	i	0.96	/	-7	/	/	100
O=C1CSC2(N1)C1CC3CC(C1)CC2C3 (stereo not drawn)	i	0.98	/	/	/	/	107
CCO/C=C1\SC(=S)N(c2ccc(Cl)cc2)C1=O	?	/	/	/	/	/	102
CCOC(=O)N1CCC(NC(=O)CNS(=O)(=O)c2ccc(Br)s2)CC1	i	0.95	-2.7	-5	/	/	103
CCC(=O)Nc1nnc(/C=C/c2ccc(OC)cc2)s1	i	0.98	/	/	/	/	96
COc1ccc(OC)c(-n2c(=S)[nH]c3cc(C(=O)N4CCCCC4)ccc3c2=O)c1	i	0.82	/	-1	/	/	102
COCCNC(=O)c1ccc(C(=O)C(=O)c2ccccc2)cc1	i	0.94	-0.7	-7	-19	100	115
O=C(CSc1nc2ncccc2[nH]1)NCCc1ccccc1	i	0.94	/	-5	/	/	100
CCOc1ccc(NC(=O)C2CCCN(S(=O)(=O)c3c(C)n[nH]c3C)C2)cc1 (stereo not drawn)	/	/	/	6	/	/	97
O=C(NC(=S)NCc1cccnc1)c1cccc2ccccc12	i	0.93	/	-2	/	/	82
COc1ccc(NC(=O)Cn2c(C)cc(=O)c3ccccc32)cc1	i	0.96	-1.2	-8	21	113	101
Cc1ccc2c(c1)NC(=O)C(CC(=O)NCCCN1CCc3ccccc3C1)O2 (stereo not drawn)	i	0.88	-1.5	7	/	/	98
Brc1ccc(Oc2nsnc2N2CCOCC2)cc1	i	1	-0.5	1	-57	133	77
CCOc1ccc(Nc2nc(CC(=O)OC)cc(=O)[nH]2)cc1	i	1	-3.6	-10	12	152	112
COc1ccc(-c2nnc(SCC(N)=O)n2N)cc1	i	0.99	-2.6	2	-36	114	92
COc1ccc(-c2nc(NC(=O)c3ccc(OCC(=O)Nc4ccc(F)cc4)c(OC)c3)sc2C)cc1	i	0.57	2.8	4	54	82	107
CN(C(=O)Nc1ccc(Cl)cc1Cl)[C@H]1c2cc(Br)ccc2OC[C@H]1CO	i	0.84	-1.8	6	/	/	100
COc1ccc(-c2nc3c(c(SCC(=O)N4CCOCC4)n2)COC(C)(C)C3)cc1	i	0.79	-1.0	-4	61*	100*	115
CC1CCCC(C)N1/N=C/c1ccc(N(C)C)cc1 (stereo not drawn)	i	1	/	-9	-67	72	104
Cc1ccc(C)c(C(=O)CC2(O)C(=O)Nc3ccccc32)c1 (stereo not drawn)	i	1	-1.5	-6	46	166	101
CS(=O)(=O)N(CC(=O)N1CCCC1)c1ccc(OCc2ccccc2)cc1	i	1	-2.0	-5	75*	45*	111
CCn1c(N2CCN(S(=O)(=O)c3ccc(F)cc3)CC2)nc2ccccc21	i	0.93	/	1	/	/	101
COC(=O)C1=C(C)NC(=O)/C1=C\c1cc(C)n(-c2ccccc2F)c1C	i	1.3	/	-5	29	102	98
Cc1ccc(S(=O)(=O)N2CCN(CC(O)c3ccccc3)CC2)cc1 (stereo not drawn)	i	0.98	/	1	/	/	102
O=C(CN1C(=O)c2ccccc2C1=O)Nc1ccccc1C(=O)NC1CCCCC1	i	0.94	-2.3	-5	/	/	107
O=C(NCCC1=CCCCC1)c1ccc(CN2CCOCC2)cc1	i	0.88	-0.7	-3	0	115	102
C=C(C)CC1(NC(C)c2ccccc2)CCCCC1 (stereo not drawn)	i	0.97	0.9	-12	-7	105	99
CCC(C)(C)NC(=O)c1ccc(S(=O)(=O)N2CCCCCC2)cc1	i	0.84	/	-4	14	45	104
Cc1ccc2c(c1)C1C=CCC1C(C(=O)O)N2 (stereo not drawn)	i	1.2	-1.2	-8	-164	84	146
Cn1nc(-c2ccc(Cl)cc2)c2cc(C(=O)NCCCN3CCCC3)sc21	i	0.48	-0.3	2	/	/	101
Cc1[nH]c2ccccc2c1SCc1n[nH]c(=S)n1C	i	0.85	/	/	/	/	101
C[n+]1c(/C=C/c2ccc3c(c2)OCO3)ccc2ccccc21	i	0.94	/	-5	/	/	101
O=C1/C(=C2/NCCN2C2CC(=O)N(c3ccccc3)C2=O)CC/C1=C\c1ccccc1 (stereo not drawn)	i	1	/	-1	/	/	104
O=C(CN1CCOCC1)N1CCCc2ccccc21	i	1.1	/	-4	/	/	105
Cc1ccc(S(=O)(=O)/N=C(/NC(=S)Nc2ccccc2)c2ccccc2)cc1	i	0.93	-1.4	-3	-30	108	107
O=C(Cc1ccc(Cl)cc1)Nc1ccccc1N1CCOCC1	i	0.93	-2.9	-14	39	148	103
Clc1ccccc1Cn1nnc2c(NCCN3CCOCC3)ncnc21	i	0.9	-0.8	-3	/	/	234
Cc1ccc(-c2nnn(CC(=O)N3CCCc4ccccc43)n2)cc1	i	0.84	-1.9	-7	-66	137	108
O=C(CC1S/C(=N/N=C/c2ccco2)NC1=O)Nc1ccccc1 (stereo not drawn)	i	0.89	/	2	/	/	102
Nc1nc2n(n1)C(c1ccco1)CC(c1ccc(Cl)c(Cl)c1)N2 (stereo not drawn)	i	0.78	-1.7	-5	/	/	88

As entered above.
Cn1nc(-c2ccc(Cl)cc2)c2cc(C(=O)NCCCN3CCCC3)sc21 @ GALR2 ag: -0.3
O=C(CC1S/C(=N/N=C/c2ccco2)NC1=O)Nc1ccccc1 (stereo not drawn) @ RGS16-Gao HTS: 102

(list continues)
SMILES	HSV augment	HSV augment primary fold	GALR2 ag	PKD1 kinase inh	Insulin prom inh	Insulin prom inh cell count	RGS16-Gao HTS
Nc1ccccc1N=Cc1ccc(-c2cccc(Cl)c2)o1	i	1.1	/	4	65	32	101
COc1ccc(F)cc1C(=O)C1CCCN(Cc2c[nH]c3ccccc23)C1 (stereo not drawn)	i	0.84	/	0	13	131	107
COc1ccc(F)cc1C(=O)C1CCCN(C(=O)CCN2CCCCO2)C1 (stereo not drawn)	i	1.1	/	9	/	/	110
O=S(=O)(NCC(c1ccco1)N1CCN(c2ccc(F)cc2)CC1)c1ccc2c(c1)OCCO2 (stereo not drawn)	i	1.1	0.2	-2	/	/	97
CC(=O)c1ccc(N2CCN(C(=O)c3ccc(Cn4c(=S)[nH]c5ccc(N6CCOCC6)cc5c4=O)cc3)CC2)cc1	i	1	/	-3	18	119	110
O=C(NCCC(c1ccccc1)c1ccco1)c1cccs1 (stereo not drawn)	i	1.3	/	-6	-93	51	112
O=C(Nc1nnc(SCc2ccc(Cl)cc2)s1)c1cnccn1	i	1	-0.6	2	-60	112	105
CCCCOC(=O)/C(=C\c1ccc([N+](=O)[O-])o1)NC(=O)c1ccccc1	i	1.1	-1.6	-5	7	142	109
NC(=O)NNC(=S)Nc1cccc2ccccc12	i	0.94	/	-9	/	/	102
Cc1nc2ccccc2nc1OCC(=O)Nc1ccccc1	i	0.92	/	-1	-75	74	104
COC(=O)C1=C(C(=O)OC)[C@@H]2N(Cc3ccccc3)c3ccccc3[C@@]23C[C@@H](C(=O)OC)N=C3N1	i	1.1	/	/	/	/	106
C=CCN(C)NC(=S)Nc1ccccc1	i	0.92	-0.6	-2	4	74	97
Cc1cc(S(=O)(=O)Nc2cccc(O)c2)c(C)s1	i	1.2	-0.1	-13	7	127	104
CCOC(=O)CC1ON(C)C(=O)N1c1ccc(Cl)cc1Cl (stereo not drawn)	i	0.97	-0.1	0	-57	135	101
Cc1ccc(C(=O)N2CCCC2)cc1S(=O)(=O)Nc1cccc(C)c1C	i	1	/	1	-29	118	100
Cc1nnc(SCC(=O)Nc2ccc3c(c2)OCCO3)n1N	i	1	-0.6	8	-25	93	92
CCSc1nnc(NC(=O)c2c(-c3ccccc3Cl)noc2C)s1	i	1	0.1	-13	/	/	105
CC(=O)c1cc2c(cc1NC(=O)CN1CCCCCCC1)OCO2	i	1.1	0.7	1	-5	121	98
CC(=C\c1ccccc1)/C=C1/SC(=O)N(CCCC(=O)Nc2ccc(C(=O)O)cc2)C1=O	i	0.99	/	7	7	75	112
Cc1nc2c(C#N)c(-c3ccc(Cl)cc3)ccn2n1	i	0.85	/	-3	-11	80	98
Cc1nnc(SCCOC(N)=O)n1C	i	0.98	-0.7	8	-91	125	91
O=C(Nc1nnc(Cc2ccc([N+](=O)[O-])cc2)s1)c1ccc2c(c1)OCO2	i	0.92	/	/	/	/	95
O=C(NCCc1ccccc1)c1ccc(NC2=NC3CS(=O)(=O)CC3S2)cc1 (stereo not drawn)	i	0.97	-1.2	3	/	/	91
O=[N+]([O-])c1cc(O)c2ncccc2c1	i	0.56	/	2	-33	59	93
Cc1cccc(-n2ccnc2SCC(=O)N2CCCc3ccccc32)c1C	i	1.2	0.4	-6	/	/	141
NC(=O)CSc1nnc(NC(=O)c2cccc(S(=O)(=O)N3CCCCC3)c2)s1	i	0.89	/	-1	53	163	100
Cc1cc(C)c(C#N)c(SCC(=O)NC2CC2)n1	i	0.86	-3.2	-3	/	/	110
O=C(OCc1cc(=O)n2c(n1)sc1ccccc12)c1ccc(O)cc1O	i	1.1	/	-4	/	/	98
COc1cc(OC)cc(-c2nnc(SCC(=O)N3CCOCC3)o2)c1	i	1	-1.1	8	6	68	103
CC1CCC(NC(=O)c2ccc(N3CCCC3=O)cc2)CC1 (stereo not drawn)	i	0.6	-2.0	-9	/	/	103
CCC(=O)N1CCNC(=O)C1CC(=O)Nc1ccc(C)c(Cl)c1 (stereo not drawn)	i	0.91	-0.6	-2	-67	90	102
Cc1sc2nc(-c3ccncc3)[nH]c(=O)c2c1-c1ccccc1	i	0.86	0.1	-19	-36	164	102
O=C(NCCCN1CCOCC1)c1ccc(Br)cc1	i	0.95	-0.5	-15	-57	112	106
COC(=O)c1sc2nc(-c3ccccc3)nc(N3CCN(C)CC3)c2c1C	i	0.52	0.9	-10	-6	113	104
COc1ccc(C(=O)NCc2nnc(SCC(=O)N3CCC(C)CC3)o2)cc1	i	0.98	/	-4	/	/	105
CSc1sc(C(=O)Nc2ccc(F)cc2F)c2c1C=CCC2	i	0.98	/	/	/	/	100
N#C/C(=C(/O)CN1CCCCC1)c1nc(-c2ccc(Cl)cc2)cs1	i	0.88	-1.7	13	21	109	94
NC(=O)N/N=C(/CCCCCC/C(=N\NC(N)=O)c1ccccc1)c1ccccc1	i	1.1	/	/	/	/	109
CCOc1ccc2nc(NC(=O)CN3CCN(C)CC3)sc2c1	i	0.87	-1.5	-1	-37	129	93
O=[N+]([O-])c1c(NCCCO)cc(Sc2ccc(Cl)cc2)c2nonc12	i	0.9	5.0*	3	23	89	94
COc1cccc(CN2CCN(S(=O)(=O)c3ccc(NC(C)=O)cc3)CC2)c1OC	i	0.94	/	-6	/	/	143
Cc1ccc(S(=O)(=O)NCCC(=O)NCc2ccccc2)cc1	i	1.2	-2.4	2	/	/	75
COCCOC(=O)C1=C(C)N(c2ccccc2)C(=O)NC1c1cccc([N+](=O)[O-])c1 (stereo not drawn)	i	1.1	-0.5	3	/	/	34
CC(=O)N1CC2([N+](=O)[O-])CN(C(C)=O)CC([N+](=O)[O-])(C1)C2(C)C	i	0.97	/	-2	28	65	195

7 entries from above, with values under each structure.
Sequence of screens – HSV augment, HSV augment primary fold, GALR2 ag, PKD1 kinase inh, Insulin prom inh, Insulin prom inh cell count, RGS16-Gao HTS
- Cc1sc2nc(-c3ccncc3)[nH]c(=O)c2c1-c1ccccc1
 : i, 0.86, 0.1, -19, -36, 164, 102
- O=C(NCCCN1CCOCC1)c1ccc(Br)cc1
 : i, 0.95, -0.5, -15, -57, 112, 106
- COC(=O)c1sc2nc(-c3ccccc3)nc(N3CCN(C)CC3)c2c1C
 : i, 0.52, 0.9, -10, -6, 113, 104
- COc1ccc(C(=O)NCc2nnc(SCC(=O)N3CCC(C)CC3)o2)cc1
 : i, 0.98, /, -4, /, /, 105
- CSc1sc(C(=O)Nc2ccc(F)cc2F)c2c1C=CCC2
 : i, 0.98, /, /, /, /, 100
- N#C/C(=C(/O)CN1CCCCC1)c1nc(-c2ccc(Cl)cc2)cs1
 : i, 0.88, -1.7, 13, 21, 109, 94
- NC(=O)N/N=C(/CCCCCC/C(=N\NC(N)=O)c1ccccc1)c1ccccc1
 : i, 1.1, /, /, /, /, 109

Source: PubChem (several laboratories)
